High-throughput results as filed in PubChem BioAssay.
LANA-H2B inh: blockers of LANA interaction with H2A/H2B – biochemical, FP readout, HTS, primary screen; Protein LANA1 (Human herpesvirus 8 type P (isolate GK18)), Q9QR71; cell-free LANA-H2A/H2B peptide, fluorescence polarization; inhibition, % (test concentration not listed); 320,000 compounds, 0.6% hits; AID 2629, 2010; in the data active = inhibition mostly above about 10%, no sharp cut-off; inactive = mostly below about 6.7%;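 note: stock transfer was 7.5 nL into about 10 µL; 0% = median of vehicle wells and 100% = median of positive control wells; one replicate is shown; the record names a cut of 25% in any replicate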
Vif TR-FRET: inhibitors of Vif binding to APOBEC3G peptide, primary screen, biochemical, TR-FRET, GST-Vif 1-94, biotin-A3G peptide, dose response retest (AID 1117319). TR-FRET GST-Vif / biotin-A3G peptide binding; higher % means a stronger effect; test concentration not given here; strong numbers were not always called active. Virion infectivity factor (Human immunodeficiency virus type 1 group M subtype B (isolate …. one-dose inhibition, %; IC50 in µM for titrated hits. 260,000 compounds, 0.57% hits;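 active = above the screen mean plus three standard deviations and confirmed in dose response; inconclusive = results disagree or hit not tested in dose response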;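 note: Vif residues 1-94 fused to GST binding biotinylated APOBEC3G peptide 110-148; 0% = full assay without inhibitor and 100% = GST in place of GST-Vif; retest series ran down from 100 µM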
B2AR ag: beta2AR agonists driving receptor internalization, primary screen, cell-based, FAP fluorogen, flow cytometry | response, % (test concentration not listed) | AID 504454, 2011 | 340,000 compounds, 0.43% hits | Beta-2 adrenergic receptor (Homo sapiens), P07550 | Am2.2-beta2AR cells; reference of the scale not given here;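 active = response above a set limit, near 3 SD of response in nonfluorescent compounds, cut at about 42% in these data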;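 note: stock transfer was 100 nL into about 11 µL; a reference agonist was the positive control; negative values mostly stem from fluorescent compounds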
Target sequence (P07550 whole entry, looked up): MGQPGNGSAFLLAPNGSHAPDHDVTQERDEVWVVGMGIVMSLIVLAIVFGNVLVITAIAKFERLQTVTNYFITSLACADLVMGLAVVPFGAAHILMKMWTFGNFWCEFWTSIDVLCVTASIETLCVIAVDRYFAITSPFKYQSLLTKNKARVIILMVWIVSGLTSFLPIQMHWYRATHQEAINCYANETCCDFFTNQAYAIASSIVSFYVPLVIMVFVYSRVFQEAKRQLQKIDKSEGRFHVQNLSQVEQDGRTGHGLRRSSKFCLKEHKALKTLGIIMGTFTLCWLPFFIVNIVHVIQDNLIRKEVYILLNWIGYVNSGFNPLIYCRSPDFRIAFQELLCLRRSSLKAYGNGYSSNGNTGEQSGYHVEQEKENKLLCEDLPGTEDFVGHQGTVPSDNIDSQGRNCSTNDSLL
UCH37 inh: inhibitors of human UCH37 deubiquitinase, primary screen, biochemical, Ub-AMC cleavage, fluorescence | Ubiquitin carboxyl-terminal hydrolase isozyme L5 (Homo sapiens), Q9Y5K5 | purified proteasome/UCH37 | inhibition, % (no concentration beside the values) | 330,000 compounds, 0.33% hits;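 active = mean of two replicates above 20%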;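 note: 0% = compound-free wells with enzyme and 100% = wells lacking proteasome; stock transfer was 100 nL into about 20 µL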
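system = Proteasome-associated human UCH37 deubiquitinase | amount = 0.15 nM proteasome as dispensed | medium = pH 7.4 Tris-HCl (50 mM) with ovalbumin, ATP-MgCl2, DTT | incubation = 30 min preincubation with enzyme, 25 min cleavage at room temperature | detection = AMC fluorescence 355/460 nm | read-out basis = percent inhibition | controls = no-proteasome and no-compound wells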
E coli growth: E. coli growth inhibition, primary screen, OD600; Escherichia coli growth, 23 h; active compounds read low; OD600 absorbance (no concentration beside the values); 330,000 compounds, 0.21% hits;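 active = OD600 absorbance below the run mean of sample wells minus 3.6 SD, in any replicate, cut at about 0.56 in these data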;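 note: stock transfer was 300 nL into about 60 µL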
A1 inh: caspase 3/7 activation in MEF A1-2A-BIM cells, primary screen, A1 inhibitor project, cell-based, luminescence, HTS | Caspase-Glo 3/7 luminescence, 3 h; percent of clofoctol response, vehicle zero | caspase activation, % (test concentration not listed) | 330,000 compounds, 0.066% hits | AID 2462, 2010;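 active = over half of replicate activation scores above 10%, or exactly half above 10 with the replicate mean above 10; inconclusive = replicate mean below 10 yet half the replicates above 10; inactive = over half of replicates below 10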;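 note: wells of about 30 µL received 50 nL stock; many hits fall short of the cut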
HNF4A DNA FP: change in binding of human HNF4A to DNA, primary screen, biochemical, fluorescence polarization, FITC-DNA; 1 h; activity change, % at 10 µM; 360,000 compounds, 0.3% hits; AID 1224865, 2016; in the data active = activity change above about 30%, passing the limit was not always enough;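 note: controls were the assay level and a saturating level of protein; the project sought stronger binding though the title names inhibitors; some compounds called inactive have numbers as strong as hits; positive values seem to mean higher polarization but the record does not say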
Target sequence (P41235 whole entry, looked up): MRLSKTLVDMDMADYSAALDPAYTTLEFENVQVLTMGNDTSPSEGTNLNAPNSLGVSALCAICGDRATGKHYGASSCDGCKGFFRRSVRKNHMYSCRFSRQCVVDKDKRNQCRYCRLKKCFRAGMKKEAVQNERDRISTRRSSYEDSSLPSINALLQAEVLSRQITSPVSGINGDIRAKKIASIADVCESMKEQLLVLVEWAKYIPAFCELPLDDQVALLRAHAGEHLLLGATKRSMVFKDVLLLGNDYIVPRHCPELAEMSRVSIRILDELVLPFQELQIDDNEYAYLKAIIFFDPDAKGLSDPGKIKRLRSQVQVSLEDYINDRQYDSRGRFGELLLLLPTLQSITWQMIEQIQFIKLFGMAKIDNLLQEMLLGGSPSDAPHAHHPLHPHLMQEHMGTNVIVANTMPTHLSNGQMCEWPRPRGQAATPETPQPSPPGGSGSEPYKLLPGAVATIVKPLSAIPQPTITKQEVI
An asterisk follows results filed as active; ? = inconclusive; . = not tested or not shown. No enrichment for hits. About 2.1% of those tested had a hit in this group.

SMILES	LANA-H2B inh	Vif TR-FRET	B2AR ag	UCH37 inh	E coli growth	A1 inh	HNF4A DNA FP
Nc1cc(S(=O)(=O)N2CCOCC2)ccc1N1CCCCC1	-7.4	13.3%	5.9	6.7	0.709	-0.7	2.0
O=C(CCCc1c[nH]c2ccccc12)NCC1COc2ccccc2O1 (stereo unspecified)	1.4	1.1%	-5.2	1.0	0.709	0.5	0.1
COCCN(C(=O)COC(=O)CCC(=O)c1ccc(Cl)cc1)c1c(N)n(Cc2ccccc2)c(=O)[nH]c1=O	1.3	0.5%	9.7	1.5	0.721	?	9.2
CCN1CCN(C(=O)CCc2ccc(S(=O)(=O)NCCc3ccccc3)cc2)CC1	-0.8	-3.8%	8.3	3.2	0.717	0.6	-0.6
CCN(CC(O)CON=C1c2ccccc2-c2ccccc21)S(=O)(=O)c1ccc(Cl)cc1 (stereo unspecified)	-1.3	.	-1.5	4.4	0.751	-0.2	-0.6
CCOC(=O)c1ccc(S(=O)(=O)N2CCC(N3CCCCC3)CC2)cc1	1.9	-5.7%	-6.8	5.0	0.72	-0.5	0.4
COC(=O)/C(=N\Nc1ccccc1)Sc1nnc(-c2ccc(OC)cc2)n1C	1.9	2.1%	-8.8	.	.	0.3	-1.9
COc1ccc(NC(=O)N2CCCc3ccccc32)c(OC)c1	-1.7	.	0.2	1.5	0.594	0.0	-1.8
O=S(=O)(c1ccccc1)N1CCN(S(=O)(=O)c2ccccc2)C1	-3.2	13.3%	0.9	3.6	0.728	0.1	-1.4
NNc1nc(C(F)(F)F)nc2ccccc12	2.6	-3.1%	6.7	3.2	0.652	-0.3	-0.9
CC(=O)/C(C(=N)N1CCN(c2cccc(Cl)c2)CC1)=C(\C)O	-5.8	3.8%	4.8	4.1	0.697	0.0	2.7
O=C(Nc1nc(-c2ccccn2)cs1)c1ccc(S(=O)(=O)N2CCCCC2)cc1	1.4	?	.	.	.	-0.3	.
COc1ccc(C2=CC(=O)C[C@H](c3ccc(F)cc3)C2)c(F)c1F	1.4	.	-12.8	-0.9	.	0.0	1.8
O=C(COc1ccc(Br)cc1)NCc1cn2ccccc2n1	-0.7	-2.7%	-1.7	-1.0	0.618	-0.5	2.6
CN(C)S(=O)(=O)n1cnc2ccccc21	-1.7	-0.5%	-5.9	3.2	0.726	1.1	-0.9
COc1ccc(NC(=O)COc2cccc3c2CCNC3=O)cc1	.	5.0%	12.6	2.6	0.677	.	1.7
Cc1cc(C(=O)N2CCc3c([nH]c4ccccc34)C2c2c(F)cccc2Cl)no1 (stereo unspecified)	-13.5	-4.6%	-2.9	-0.6	0.717	-0.1	0.4
COC(=O)c1cc(Br)ccc1NC(=O)Nc1ccc(C)cc1	-1.7	.	-19.1	2.1	0.686	-0.3	1.1
CCc1ccc(OCC(=O)N2CCN(c3ccccc3F)CC2)cc1	-2.8	-4.7%	0.7	1.5	0.686	0.5	2.2
CCC1(CC)NC(=O)NC1=O	-0.4	-9.2%	-2.0	31.5*	0.684	0.3	1.4
CC(=O)N/C(=C/c1ccccc1)c1ccccc1	-4.7	.	0.7	1.7	.	1.2	-2.3
Cn1nnnc1SCC(=O)N1CCc2ccccc21	-5.4	-10.6%	-1.9	0.5	0.691	0.6	3.5
Cc1nc2cc(NC(=O)Nc3cccc([N+](=O)[O-])c3)ccc2n1C	-1.6	.	-4.2	2.3	0.591	-4.9	-1.8
O=c1[nH]c(Cc2ccccc2)nc2ccccc12	0.2	8.5%	-7.6	4.4	0.691	0.1	-3.1
O=C(NCc1cc(C(F)(F)F)cc(C(F)(F)F)c1)C1CC(c2ccccc2[N+](=O)[O-])=NO1 (stereo unspecified)	0.7	4.0%	-2.9	1.6	.	1.2	-1.8
COc1ccc(C(C(=O)NC(C)(C)C)N(CCc2ccccc2)C(=O)CCC(=O)Nc2cc(C)on2)cc1 (stereo unspecified)	-3.1	.	-7.1	0.6	0.616	0.9	-1.3
OCC1(Cc2ccc(Cl)cc2)CCN(Cc2ccccc2F)CC1	-2.3	-9.3%	11.5	2.4	0.719	0.4	1.6
CCCCN=C(Nc1ccc(Cl)cc1)c1cccnc1	1.7	0.4%	40.9	4.4	0.72	-1.2	0.2
Cc1ccc(Cl)c(N/C=C/C(=O)c2ccccc2)c1	0.0	1.3%	8.1	2.3	0.692	-2.5	1.6
O=C(Nc1cccnc1)C1CCN(S(=O)(=O)c2ccc(Cl)cc2)CC1	6.9	.	-4.3	1.2	0.731	0.7	-0.5
O=C(NC1c2ccccc2Oc2ccccc21)c1ccc([N+](=O)[O-])cc1	.	5.9%	3.7	0.5	0.676	.	-2.5
Cc1c(NC(=O)CSc2nnnn2-c2ccc(O)cc2)c(=O)n(-c2ccccc2)n1C	-5.2	10.5%	2.1	2.6	0.658	1.6	2.5
CN(C)c1ccc(N2C(=O)CC(c3ccccc3)CC2=O)cc1	-6.4	-12.2%	-5.3	1.6	0.713	0.7	1.0
CC1CCCN(C(=O)CCS(=O)(=O)Cc2ccccc2)C1 (stereo unspecified)	-1.3	-4.5%	5.1	3.4	0.719	0.1	0.2
COC(=O)Nc1csc2c1NC(=O)CCCC2	4.5	.	0.8	-0.3	0.675	0.2	0.7
Cc1ccc(S(=O)(=O)Nc2ccccc2F)cc1C(=O)NCc1ccco1	.	.	-7.0	0.7	0.669	.	2.0
O=C(NCCN1CCOCC1)c1ccccc1Cl	-1.6	.	-2.8	-1.2	0.68	-0.7	-1.0
O=S(=O)(NCc1ccccc1Br)c1cccs1	1.5	5.4%	2.2	3.8	0.636	-0.8	2.8
COc1cccc(CNCCSc2nnnn2C)c1OC	-20.2	2.2%	-3.6	4.4	0.668	0.5	2.3
COCCn1c(SCC(=O)Nc2ccc(F)cc2F)nc2c([nH]c3ccccc32)c1=O	-3.0	6.2%	-5.7	-2.5	0.719	-0.3	0.0
O=C(CC1CCCCC1)NCc1ccccc1Cl	5.9	-4.3%	13.0	1.5	0.72	-0.7	-2.9
CCC(C)[C@H](NC(=O)NCc1cccc(OC)c1)C(=O)OC (stereo partly specified)	2.8	20.0%	-1.9	-1.7	.	0.2	0.8
COc1ccc(NC(=O)CN2CCN(S(=O)(=O)c3ccc(Br)cc3)CC2)c(OC)c1	2.9	.	1.0	3.9	0.72	0.5	-2.5
CCCOc1cccc(C(=O)Nc2nnn(CCC)n2)c1	3.9	7.3%	-25.5	4.1	0.726	0.1	-2.4
O=C(CN1C(=O)C2CC=CCC2C1=O)Nc1ccc(F)cc1F (stereo unspecified)	-2.5	-5.2%	-0.3	2.2	0.656	0.3	-4.2
Cc1oc(-c2ccc(Cl)cc2)nc1CS(=O)CC(=O)NCCN1CCCC1 (stereo unspecified)	-0.7	14.5%	-3.3	2.3	0.741	.	8.0
COCCNC(=O)Cn1cc(S(=O)(=O)N2CCN(c3ccccc3F)CC2)c2ccccc2c1=O	-3.1	0.7%	3.8	0.9	0.664	-0.1	0.6
CCO[C@@H]1OC(C(=O)NCc2nc3ccccc3[nH]2)=C[C@H](C2CC2)[C@H]1CCCO	3.1	.	-14.6	4.3	.	-0.1	-0.2
O=C(c1cc(-c2ccc(Cl)c(Cl)c2)on1)N1CCCCCC1	-1.3	.	-3.1	-2.6	0.715	-1.8	5.4
O=S(=O)(NCc1ccc2c(c1)OCO2)c1cccc2nsnc12	-7.8	?	7.0	2.7	0.661	0.3	-0.2

(next part)
SMILES	LANA-H2B inh	Vif TR-FRET	B2AR ag	UCH37 inh	E coli growth	A1 inh	HNF4A DNA FP
Clc1cc(Cl)cc(Nc2ncnc(-n3cccc3)n2)c1	5.1	4.5%	-3.0	-2.0	0.698	0.3	0.2
Cc1cc(C)nc(N(C#N)S(=O)(=O)c2ccccc2)n1	-8.6	5.0%	0.3	-2.5	0.756	0.6	2.1
COc1ccc(/C(O)=C2/C(=O)C(=O)N(CCCC(=O)O)C2c2ccc(OC)c(OC)c2)cc1 (stereo unspecified)	-0.2	18.0%	-3.6	11.7	0.732	0.6	-0.8
CCOC(=O)c1cc(-c2nnc(-c3ccc(Oc4ccccc4)cc3)o2)c(C)nc1C	4.8	2.9%	-3.1	-5.6	0.783	-2.6	-3.4
CCn1c(CNC(=O)COc2ccc(C(C)C)cc2)nnc1SCC(=O)Nc1cc(F)ccc1C	7.8	-1.0%	-12.9	3.1	0.656	-0.5	-1.6
Cc1ccc(OCC(=O)Oc2ccc(C)c(C)c2)cc1	1.3	.	-6.4	1.1	0.589	0.0	0.1
Cc1ccc(Nc2nc(N)nc(CSc3nnc(-c4ccncc4)o3)n2)cc1	-2.5	?	4.3	2.0	0.743	1.0	5.5
Cc1cc(C)nc(-n2ncc3c2CC(c2ccccc2C)CC3=O)n1 (stereo unspecified)	3.2	.	1.5	4.0	0.719	1.5	-0.1
OCCOCCN1CCN(C(=S)Nc2ccccc2)CC1	0.5	-11.2%	4.8	5.1	0.68	0.0	3.1
CN(CC(=O)Nc1nc2ccccc2s1)S(=O)(=O)c1ccc(Cl)cc1	3.4	5.2%	-1.8	3.5	0.711	-0.3	-0.6
O=C(Cn1ncc2ccccc21)N1CCN(c2cccc(C(F)(F)F)c2)CC1	-2.6	2.6%	5.3	0.8	0.703	0.2	2.1
CCC(=O)c1ccc(OCC(O)CN2CCN(c3cccc(C(F)(F)F)c3)CC2)cc1 (stereo unspecified)	2.7	2.4%	2.0	2.5	0.643	1.1	-0.3
COC(=O)Cc1ccc(NC(=S)NNC(=O)c2ccccc2Br)cc1	-22.9	.	6.1	0.9	0.631	0.1	2.6
CC(C)C(=O)Nc1nc(-c2ccc([N+](=O)[O-])cc2)cs1	-1.9	4.6%	-12.7	3.3	0.687	-0.2	0.9
O=C(COC(=O)C1CCC1)Nc1ccccc1Sc1ccccc1	10.4	-0.1%	2.7	2.1	0.609	-0.3	-5.0
CCN=C(NCC)SC1CC(=O)N(c2ccc(OC)cc2)C1=O (stereo unspecified)	-0.5	-2.4%	1.1	0.8	0.645	1.0	-3.9
COc1cc(C#N)ccc1OC(=O)c1cccc(S(=O)(=O)N2CCN(C)CC2)c1	2.1	12.1%	11.8	0.1	0.679	1.2	-2.9
CCCCN1C(=O)/C(=C/C=C2/CC(C)(C)CN2C)SC1=S	-120.6	0.5%	-12.9	9.1	0.673	0.2	-78.4
CCc1cccc(NC(=O)CCCn2nc(C)c3c(C)n(-c4ccccc4)nc3c2=O)c1	-1.1	.	-2.4	-2.2	0.705	-0.3	-5.0
CC(C)(O)C#Cc1ccc(C(=O)NCc2cccs2)s1	1.1	-1.9%	-5.1	8.0	0.709	-0.8	0.5
O=C(Nc1cccc(-c2nc3ccccc3s2)c1)c1ccc2c(c1)OCO2	-2.9	-15.4%	-10.0	-1.6	0.679	0.3	2.7
On1onc2c3cc(-c4ccccc4)nc3ccc21	-1.8	6.4%	26.6	5.6	0.469*	-0.2	1.4

Two compounds picked at random from the list so far, as already listed:
SMILES	LANA-H2B inh	Vif TR-FRET	B2AR ag	UCH37 inh	E coli growth	A1 inh	HNF4A DNA FP
CCC(=O)c1ccc(OCC(O)CN2CCN(c3cccc(C(F)(F)F)c3)CC2)cc1 (stereo unspecified)	2.7	2.4%	2.0	2.5	0.643	1.1	-0.3
On1onc2c3cc(-c4ccccc4)nc3ccc21	-1.8	6.4%	26.6	5.6	0.469*	-0.2	1.4
